Bioassay records deposited in PubChem by National Center for Advancing Translational Sciences (NCATS).
miR-21 FLuc: miR-21 reporter, rising signal. HeLa miR-21 FLuc reporter, luciferase, 48 h. Potency, µM (highest dose often 38.3 µM), for the others: at the highest dose reporter change, positive = more light. 340,000 tested, under 10 active; active = well fitted rising curve with a large enough effect; inconclusive = small, poorly fitted or top-dose-only effect; inactive = no such curve, though single readings can be large or run the other way;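 note: % of control where 0% means no effect; miR-21 action dims this reporter so a rising signal means less miR-21 action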
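HeLa miR-21-FLuc reporter line, endogenous miR-21; 2000 cells/well in DMEM/10% FBS; compound titration up to ~40uM final, 48 h, 37 degree Celsius; luciferase detection reagent, 15 min lysis, CCD luminescence.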
Numbers without * were called inactive; ? = inconclusive; [ ] = remark or other dose. Only part of the results is shown, so the mix of outcomes need not match the whole.

SMILES | miR-21 FLuc
COc1ccc(-n2c(=O)c3ccc(C(=O)NCc4ccc(C)cc4)cc3n(Cc3ccc(C)cc3)c2=O)cc1 | -3%
CC(=O)C1=C(c2ccc(Cl)cc2)N(C(C)=O)n2c(nnc2C2CCCCC2)S1 | 0%
COc1ccc(N2CCN(C(CNC(=O)C(=O)NCCc3ccccc3)c3cccnc3)CC2)cc1 (stereo unspecified) | 1%
Cc1cc(C)c(/C=C/c2onc(C)c2S(=O)(=O)N2CCC(C(=O)N3CCN(c4ccc(Cl)cc4)CC3)CC2)c(C)c1 | 1%
Cc1csc2nc(COC(=O)c3ccc(NC(=O)c4ccccc4Br)cc3)cc(=O)n12 | ?
Cc1ccc(C)c(NC(=O)N2CCN(C)c3ncccc32)c1 | 0%
Cc1cc(C)n2nc(NCc3ccccc3Cl)nc2n1 | -10%
CCOC(=O)c1cccc(NS(=O)(=O)c2cn(C)c(C)n2)c1 | -2%
CCCCC[C@]12Cc3ccccc3C(O1)c1c(cc(C)oc1=O)O2 | -1%[7.66 µM]
O=C(O)CCSc1nnc(-c2ccc(Cl)cc2Cl)o1 | ?
COC(=O)c1ccc(C2CC(=O)Nc3c2c(C)nn3-c2nc(C)cc(C)n2)cc1 (stereo unspecified) | 0%
CCN(CC)CCCNC(=O)c1ccc(Cn2c(=O)[nH]c3cc(OC)c(OC)cc3c2=O)cc1 | 8%
Cc1ccc(-n2nc(CO)c(C(=O)NCc3cccs3)n2)cc1 | 22%
Cc1nc(N)c(S(=O)(=O)c2ccccc2)c(Nc2ccc(Br)cc2)n1 | -10%
CCN1CCN(c2oc(-c3ccc(COc4ccccc4C)o3)nc2C#N)CC1 | -3%

(continued)
SMILES | miR-21 FLuc
CCc1ccc2nc(N(Cc3cccnc3)C(=O)c3cccs3)sc2c1 | -13%
Cc1ccc(CNC(=O)CCCn2c(=O)c3ccccc3n(CC(=O)C(C)(C)C)c2=O)cc1 | 0%
Cc1ccc(NC(=O)Cn2c(=O)n(Cc3ccccc3)c(=O)c3c(C)c(C)sc32)c(C)c1 | -5%
COc1cccc(NC(=O)CSc2nc3ccc(NC(=O)c4ccco4)cc3s2)c1 | ?
Cc1c(Cl)cccc1-n1ncc(C(=O)N2CCc3ccccc3C2)c1C1CCN(C(=O)OC(C)(C)C)CC1 | 3%
CCCOc1ccc(C(=O)Nc2sc3c(c2C(=O)OCC)CCCCC3)cc1 | -2%
COc1cccc(N2CCN(C(=O)C3CCCN(S(=O)(=O)c4cccc5nsnc45)C3)CC2)c1 (stereo unspecified) | 1%
COc1ccccc1C(=O)Nc1ccc(-c2cc(C(F)(F)F)nn2-c2ccccc2)cc1 | 30%
COc1ccccc1C(=O)Nc1cccc(OCc2cc(=O)n3c4c(sc3n2)CCCC4)c1 | -5%
CCOC(=O)c1cccc(NC(=O)CC2C(=O)N(c3ccc(C)cc3)C(=O)N2Cc2cccc(OC)c2)c1 (stereo unspecified) | 21%
Cc1cccc(C(=O)NNc2ncnc3c2cnn3-c2ccc(C)c(Cl)c2)c1 | -59%
COc1cc(CN(C(=O)COc2ccc(F)cc2)c2ccccn2)cc(OC)c1OC | -3%
N#Cc1c(C(F)(F)F)cc(-c2cccs2)nc1SCC(=O)Nc1cccc(Br)c1 | -2%
Cc1cc(-c2ccccc2)nc2cc(C(=O)Nc3ccc(Cl)c(Cl)c3)nn12 | -2%
COC(=O)c1cnn2c(C)c(Cc3c(C)cc(C)cc3C)c(C)nc12 | -1%

Some of these compounds in order of the miR-21 FLuc value, largest number first.
SMILES	miR-21 FLuc
COc1cccc(N2CCN(C(=O)C3CCCN(S(=O)(=O)c4cccc5nsnc45)C3)CC2)c1 (stereo unspecified)	1%
Cc1ccc(CNC(=O)CCCn2c(=O)c3ccccc3n(CC(=O)C(C)(C)C)c2=O)cc1	0%
N#Cc1c(C(F)(F)F)cc(-c2cccs2)nc1SCC(=O)Nc1cccc(Br)c1	-2%
COc1cc(CN(C(=O)COc2ccc(F)cc2)c2ccccn2)cc(OC)c1OC	-3%
CCc1ccc2nc(N(Cc3cccnc3)C(=O)c3cccs3)sc2c1	-13%

Next section
SMILES | miR-21 FLuc
CCc1ccc(NC(=O)Cn2ncc3c(C)n(Cc4cccc(Cl)c4)c(C)c3c2=O)cc1 | -1%
CCc1ccc(NC(=O)CSC2=Nc3ccccc3C3=NC(CCC(=O)NCc4ccco4)C(=O)N23)cc1 (stereo unspecified) | -4%
CCc1ccc(CNCc2c(C(=O)O)c(C)n(Cc3c(F)cccc3Cl)c2C)cc1 | 3%
CSc1ccc(C(=O)Nc2ccc(-c3nc4ccccc4s3)c(O)c2)cc1 | -22%
Cc1ccc2oc(-c3ccc(C)c(NC(=O)/C=C/c4ccco4)c3)nc2c1 | -31%
O=C(NCCc1ccccc1Cl)c1cc2ccccn2n1 | -39%
CC(C)Cn1c(=O)c2ccccc2n2c(CCC(=O)Nc3cccc(Cl)c3)nnc12 | -1%
CC1CCN(C(=O)Cn2cc(SCc3ccccc3)c3ccccc32)CC1 | -17%
O=C(Nc1cnc(N2CCC(N3CCCCC3)CC2)c(C(=O)O)c1)c1ccc(Br)cc1 | 2%
Cc1csc2nc(-c3cccc(NC(=O)C(C)C)c3)cn12 | -5%
COc1ccccc1CNC(=O)Cn1ncc2c(=O)oc3ccc(C)cc3c21 | 0%
CC1CCN(C(=O)Cn2cc(SCC(=O)Nc3ccccc3)c3ccccc32)CC1 | 0%
COc1ccccc1NC(=O)C1=C(C)Nc2c(C(=O)Nc3ccc(C)cc3)cnn2C1c1cccc(OC)c1OC (stereo unspecified) | 1%
O=C(Nc1ccc2nc(SCC(=O)N3CCc4ccccc43)sc2c1)c1ccc(Cl)cc1 | 1%
CC(C)Sc1ncc(Cl)c(C(=O)Nc2ccc(S(=O)(=O)N3CCCCC3C)cc2)n1 (stereo unspecified) | ?

Next part:
SMILES | miR-21 FLuc
Fc1ccc(-c2cc(C(F)(F)F)nc(NCc3ccccc3)n2)cc1 | 9%
Cc1ccc(Cn2c(C)c(CNCCCc3ccccc3)c(C(=O)O)c2C)cc1 | 4%
CCOC(=O)c1c(C)[nH]c(C)c1S(=O)(=O)NCC(=O)Nc1ccc(C)c(N(C)C)c1 | -2%
CCOC(=O)c1oc2ccc(S(=O)(=O)n3nc(-c4ccc(Br)cc4)cc3N)cc2c1C | -9%
COc1cc(OC)c(NC(=O)c2sc3nc4n(c(=O)c3c2C)CCCC4)cc1Cl | -21%
Cc1cc(NC(=O)N2CCC(CN3CCOCC3)CC2)ccc1Br | -1%
O=C(CSc1nccn1C1CCCC1)Nc1ccccc1 | -58%
CCOC(=O)c1sc2ccccc2c1S(=O)(=O)NCc1ccc(F)cc1 | -1%
Cc1ccc(CNC(=O)CN(C)S(=O)(=O)c2ccc3c(c2)c(=O)n(C)c(=O)n3C)cc1 | -4%
CSc1ccc(CCNC(=O)CCc2c(C)nc3c(c(C)nn3-c3ccc(C)c(C)c3)c2C)cc1 | 5%
CNS(=O)(=O)c1cn(CC(=O)N2CCN(c3ccc(C(C)=O)cc3)CC2)cc1S(=O)(=O)NC | -6%
Fc1cccc(NCc2ccccc2-c2nnc(-c3ccccc3Cl)o2)c1 | -67%
COc1ccc(CCNC(=O)c2c(C)oc3ncn(C)c(=O)c23)c(OC)c1 | 3%
CSc1ccc(CCNC(=O)c2ccc3c(c2)nc2n3CCCCC2)cc1 | -15%
O=C1CCCc2cc(S(=O)(=O)NCC3CCC(C(=O)NCc4ccccc4Cl)CC3)ccc2N1 (stereo unspecified) | 18%

More records follow:
SMILES | miR-21 FLuc
Cc1cccc(C)c1-n1ncc(C(=O)NCCN2CCN(C)CC2)c1C1CCN(C(=O)OC(C)(C)C)CC1 | -4%
CCOc1ccc(CCNC(=O)CCc2c(C)nc3cc(-c4ccccc4OC)nn3c2C)cc1 | ?
COc1cc(CNc2ccc3[nH]c(=O)[nH]c3c2)cc(Cl)c1OCc1ccc(F)cc1 | -1%
Cc1ccc(Cl)cc1NC(=O)CCc1c(C)nc2c3cccnc3nn2c1C | -2%
Cc1cc(C)c(NS(=O)(=O)c2ccc(-c3cnc(C4CC4)o3)cc2)c(C)c1 | ?
CCOC(=O)CCNC(=O)N1CCN(S(=O)(=O)c2ccc3c(ccn3C)c2)CC1 | -1%
Cc1cc(=O)n(CC(=O)NC(C)c2ccccc2)c2c1c(C)nn2C (stereo unspecified) | -31%
O=C(NCCCCc1ccccc1)c1nn(-c2ccccc2)nc1CO | 7%
CCOC(=O)C1CCN(C(=O)c2ccccc2NC(=O)c2nsc3ccccc23)CC1 | -14%
O=C(c1cc(-c2ccncc2)nc2c(Cl)cccc12)N1CCN(c2ccccc2F)CC1 | 1%
CCCCN(CC)CCCNC(=O)Nc1sc2nc3n(c(=O)c2c1C)CCC(C)CC3 (stereo unspecified) | -7%
COc1cc(C(=O)NCC(c2cccs2)S(=O)(=O)c2cccs2)cc(OC)c1OC (stereo unspecified) | 2%
O=C(CCNS(=O)(=O)c1ccc2c(c1)CCN2C(=O)C1CC1)N1CCN(c2cccc(C(F)(F)F)c2)CC1 | 23%
COC(=O)c1ccc(NC(=O)CC2C(=O)N(c3ccccc3)C(=O)N2Cc2ccc(F)cc2)cc1 (stereo unspecified) | 7%
COc1cc(C2CC(=O)c3c([nH]c(C(=O)OCC4CCCCC4)c3C)C2)cc(OC)c1OC (stereo unspecified) | ?

More records.
SMILES | miR-21 FLuc
COc1ccc(-c2cc(C(=O)NCc3ccc(F)cc3)no2)cc1 | -13%
CC1=C(C(=O)OCC2CCCCC2)C(c2ccc(F)cc2F)CC(=O)N1 (stereo unspecified) | 1%
Cc1cccc(Cn2c(SCc3ccc(C(=O)NCc4ccccc4F)cc3)nc3ccncc32)c1 | 13%
CSc1ccc(CCNC(=O)CCc2c(C)nc3c4cccnc4nn3c2C)cc1 | 15%
COc1cc(C(=O)NCCc2sc(-c3cccc(F)c3)nc2C)cc(OC)c1OC | 7%
Cc1ccccc1C(=O)N1CCC(C(=O)Nc2ccc(F)cc2F)CC1 | -1%
COc1ccc(CNC(=O)Cn2c(=O)oc3cc(S(=O)(=O)N4CCC(C)CC4)ccc32)cc1 | 17%
O=C(NCc1ccccc1Cl)c1cnc2sc(N3CCCCC3)nn2c1=O | -2%
COc1cc2c(cc1OC)n(Cc1ccc([N+](=O)[O-])cc1)c(=O)n1nc(-c3ccccc3)nc21 | 25%
CCOC(=O)c1cnc2ccc(OCC)cc2c1Nc1ccc(OCc2ccccc2Cl)cc1 | 14%
CCC1(C)CC(=O)c2c(ccc3oc(C(=O)NCc4ccccc4)c(C)c23)O1 (stereo unspecified) | -8%
CCC12CN3CC(CC)(CN(C1)C3c1ccc(OCc3ccccc3)cc1)C2=O (stereo unspecified) | 10%
COc1ccc(S(=O)(=O)n2nc(C)c(S(=O)(=O)N3CCOCC3)c2C)cc1OC | -7%
Cn1c(=O)c2sccc2n2c(CCC(=O)N3CCN(c4ccc(F)cc4)CC3)nnc12 | 1%
COc1ccc(CCN2C(=O)CN(C3CCCCCC3)C(=O)C2c2ccc(Cl)cc2)cc1OC (stereo unspecified) | -1%

Exported as labelled records: 2 of the compounds above.
compound: N#Cc1c(C(F)(F)F)cc(-c2cccs2)nc1SCC(=O)Nc1cccc(Br)c1
  miR-21 FLuc = -2%
compound: Cc1c(Cl)cccc1-n1ncc(C(=O)N2CCc3ccccc3C2)c1C1CCN(C(=O)OC(C)(C)C)CC1
  miR-21 FLuc = 3%

The list continues.
SMILES | miR-21 FLuc
CCN(CC)c1ccc(CNCCCSc2nnnn2C)cc1 | -1%
CCN1CCN(C(c2ccccc2Cl)c2c(O)cc(C)n(Cc3ccco3)c2=O)CC1 (stereo unspecified) | -1%
Cc1nn(-c2ccccc2)c(OC(=O)c2cccc(Br)c2)c1S(=O)(=O)c1ccccc1 | -1%
Cc1c(CCC(=O)NCCc2ccc(Cl)cc2)c(=O)oc2c(C)c(O)ccc12 | -28%
O=S(=O)(Nc1ccccc1C(F)(F)F)c1ccc(N2CCCCS2(=O)=O)cc1 | -7%
COc1ccc(-c2onc(C)c2C)cc1S(=O)(=O)N(C)Cc1ccccc1 | 28%
Cc1ccccc1CCNC(=O)c1cc2ccccn2n1 | -51%
Cc1c(Cl)cccc1NC(=O)C(C)n1c(=O)cc(-c2ccccc2)c2c(C)nn(C)c21 (stereo unspecified) | -1%
CN1CCN(C(c2ccccc2)c2sc3nc(-c4ccco4)nn3c2O)CC1 (stereo unspecified) | 3%
Cc1ccc(CCNC(=O)c2ccc(CS(=O)(=O)Cc3cccc(C)c3)o2)cc1 | 10%
CCOc1ccc(CCNC(=O)c2c3c(nc4ccccc24)C(=O)N(C2CCCCC2)C3)cc1 | 21%
COc1ccc(NC(=O)c2cc(S(=O)(=O)N3CCOCC3)ccc2OC)cc1 | -8%
Cc1ccc(CNC(=O)c2ccc(CS(=O)(=O)Cc3ccc(C)cc3)o2)cc1 | 4%
COc1ccc(-c2cc(C(C)=O)c(C)n2CCC(=O)Nc2ccc(C)cc2Cl)cc1 | -5%
O=C(CN1C(=O)c2ccccc2Sc2ncccc21)Nc1cccc(C(F)(F)F)c1 | -2%

Going on with the list:
SMILES | miR-21 FLuc
CC(C)(C)C(=O)Cn1c(=O)n(-c2ccccc2)c(=O)c2c3c(sc21)CCC3 | -2%
CCC(Sc1nc2cc3c(cc2c(=O)n1CCCCCC(=O)NCc1ccc2c(c1)OCO2)OCO3)C(=O)NCCCOC (stereo unspecified) | 0%
CCc1ccc(-c2cn3c(n2)sc2cc(C(=O)NC4CCCCCC4)ccc23)cc1 | -2%
Cc1cccc(N(CC(=O)NCc2ccccc2)S(C)(=O)=O)c1C | 0%
COc1ccc(/C=C/c2nc3ccccc3c(=O)n2-c2cccc(C(F)(F)F)c2)cc1 | 1%
